# Bioassay records from PubChem BioAssay.
# RanGTP-Imp inh = disruptors of Ran-importin-beta complex formation – biochemical, FRET, CFP-Ran, YFP-importin-beta, homogeneous, primary screen. cell-free CFP-Ran/YFP-importin-beta FRET ratio. inhibition, % (no concentration beside the values). 300,000 compounds, 1.1% hits;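 active means most replicates above 15%; inconclusive means exactly half above 15%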;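 further: 0% = DMSO wells and 100% = Ran loaded with GDP instead of GTP; wells of about 40 µL received 100 nL stock; the first replicate is given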
# A1 inh = inhibitors of the anti-apoptotic protein A1, read as caspase activation. MEF A1-2A-BIM cells, Caspase-Glo 3/7 luminescence, 3 h; percent of clofoctol response, vehicle zero. caspase activation, % (test concentration not listed). 330,000 compounds, 0.066% hits;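 active means over half of replicate activation scores above 10%, or exactly half above 10 with the replicate mean above 10; inconclusive means replicate mean below 10 yet half the replicates above 10; inactive means over half of replicates below 10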;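 further: wells of about 30 µL received 50 nL stock; many hits fall short of the cut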
# Vif A3G = inhibitors of Vif binding to APOBEC3G peptide, primary screen, biochemical, TR-FRET, GST-Vif 1-94, biotin-A3G peptide, dose response retest (AID 1117319); TR-FRET GST-Vif / biotin-A3G peptide binding; higher % means a stronger effect; test concentration not given here; strong numbers were not always called active; one-dose inhibition, %; IC50 in µM for titrated hits; 260,000 compounds, 0.57% hits;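 active means above the screen mean plus three standard deviations and confirmed in dose response; inconclusive means results disagree or hit not tested in dose response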;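 further: Vif residues 1-94 fused to GST binding biotinylated APOBEC3G peptide 110-148; 0% = full assay without inhibitor and 100% = GST in place of GST-Vif; retest series ran down from 100 µM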
# Calb FLC = C. albicans growth modulation with fluconazole | AID 1979 | C. albicans CaCi-2 (fluconazole-resistant clinical isolate) + fluconazole, Alamar Blue growth, 48 h | growth inhibition, % (concentration not given with the values) | 300,000 compounds, 0.57% hits;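 active means most replicates above 75%; inconclusive means exactly half above 75%; inactive means most below 75%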;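 further: all wells also contain fluconazole at 8 µg/ml as a sub-toxic cotreatment; 0% = median of DMSO wells and 100% = median of geldanamycin control wells; wells of about 8 µL received 7.5 nL stock; the first replicate is given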
# MLL AF4-AF9 inh = blocks AF4 peptide binding to human AF9. AlphaScreen, biotin-AF4 peptide binding to FLAG-AF9. inhibition, % at 10 µM. 350,000 compounds, 0.47% hits;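 active means every replicate reaching a set inhibition limit, whatever the replicate mean, cut at about 25% in these data; inconclusive means mean inhibition reaches that limit but some replicates miss it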;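 further: 0% = plate neutral control median and 100% = total signal loss; the record names both 10 and 1 µM as test concentration; the first replicate is given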
# T cruzi repl = blocks replication of Trypanosoma cruzi | inhibition, % (test concentration not listed) | T. cruzi beta-gal in NIH3T3, luminescence, 90 h | 300,000 compounds, 1.4% hits;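 active means mean inhibition across valid replicates above about 55%, limit read from the data; inconclusive means mean below that limit but half or more replicates reach it; inactive means mean below it, under half of replicates reach it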;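 further: signal also drops with host cell toxicity which is not excluded here; 0% = plate median of DMSO wells and 100% = zero luminescence signal; higher percent means less beta-gal luminescence so fewer parasites; stock transfer was 50 nL into about 50 µL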
# Beta apoptosis = blocks beta cell apoptosis; INS-1E cytokine-induced death, ATP luminescence, 48 h; percent of positive-control rescue, neutral wells zero; protection from apoptosis, % (test concentration not listed); 300,000 compounds, 0.8% hits;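 active means all replicates at 75% or more, or half of them and the mean; inconclusive means half reach 75% but not the mean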;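 further: 0% = cytokine-treated negative control wells and 100% = positive control rescue; higher means more ATP so stronger rescue from cytokine killing; wells of about 40 µL received 100 nL stock; the first replicate is given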
# LANA-H2B inh = blocks KSHV LANA binding to histone H2A/H2B; Q9QR71; cell-free LANA-H2A/H2B peptide, fluorescence polarization; inhibition, % (test concentration not listed); 320,000 compounds, 0.6% hits; in the data active means inhibition mostly above about 10%, no sharp cut-off; inactive means mostly below about 6.7%;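 further: stock transfer was 7.5 nL into about 10 µL; 0% = median of vehicle wells and 100% = median of positive control wells; one replicate is shown; the record names a cut of 25% in any replicate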
# Target sequence (Q9QR71 whole entry, looked up): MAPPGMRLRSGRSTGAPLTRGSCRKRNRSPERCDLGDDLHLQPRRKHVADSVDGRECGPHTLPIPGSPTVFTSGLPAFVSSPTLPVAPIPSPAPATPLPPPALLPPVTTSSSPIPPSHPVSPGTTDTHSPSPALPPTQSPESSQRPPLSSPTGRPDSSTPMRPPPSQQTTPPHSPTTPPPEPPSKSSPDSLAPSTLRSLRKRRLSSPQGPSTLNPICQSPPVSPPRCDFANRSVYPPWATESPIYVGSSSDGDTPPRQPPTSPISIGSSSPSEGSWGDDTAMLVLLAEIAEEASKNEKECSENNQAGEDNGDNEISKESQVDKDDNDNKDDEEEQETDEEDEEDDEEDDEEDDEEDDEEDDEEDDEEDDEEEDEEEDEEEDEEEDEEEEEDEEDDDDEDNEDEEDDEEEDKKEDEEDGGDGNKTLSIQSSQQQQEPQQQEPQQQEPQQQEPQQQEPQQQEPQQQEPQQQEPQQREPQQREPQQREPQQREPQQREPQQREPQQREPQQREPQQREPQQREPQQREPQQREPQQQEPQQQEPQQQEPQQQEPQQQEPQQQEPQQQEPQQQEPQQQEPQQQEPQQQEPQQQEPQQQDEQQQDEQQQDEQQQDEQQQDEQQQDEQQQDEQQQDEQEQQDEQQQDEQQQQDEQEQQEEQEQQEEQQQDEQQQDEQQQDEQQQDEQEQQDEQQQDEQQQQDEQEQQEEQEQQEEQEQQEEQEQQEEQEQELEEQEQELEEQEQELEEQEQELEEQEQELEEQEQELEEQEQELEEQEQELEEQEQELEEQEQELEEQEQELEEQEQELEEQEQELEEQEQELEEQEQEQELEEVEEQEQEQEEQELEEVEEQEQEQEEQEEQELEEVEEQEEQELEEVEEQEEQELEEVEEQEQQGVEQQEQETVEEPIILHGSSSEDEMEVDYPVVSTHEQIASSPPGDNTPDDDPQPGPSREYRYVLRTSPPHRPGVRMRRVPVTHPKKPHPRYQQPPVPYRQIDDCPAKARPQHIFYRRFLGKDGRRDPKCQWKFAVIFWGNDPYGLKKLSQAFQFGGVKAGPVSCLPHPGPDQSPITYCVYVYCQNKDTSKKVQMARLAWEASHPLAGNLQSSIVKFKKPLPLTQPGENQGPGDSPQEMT
# * hit, by the source's call; ? = inconclusive; . = not tested or not shown; & = joins results of further samples.
SMILES,RanGTP-Imp inh,A1 inh,Vif A3G,Calb FLC,MLL AF4-AF9 inh,T cruzi repl,Beta apoptosis,LANA-H2B inh
Cc1ccc(O)c(N=Nc2nccs2)c1,.,-1.1,3%,.,3.2,.,89*,.
Cc1cc(=O)oc2c3c(cc(OCC(=O)NCCC(=O)N[C@@H](C)C(=O)O)c12)OC(C)(C)CC3,-3.5,0.5,-9%,4,0.1,-5,-5,0.6
CC1CC(C)CN(S(=O)(=O)c2ccc(NC(=O)[C@@H]3CCCN3C(=O)c3cccs3)cc2)C1 (stereo partly drawn),.,-0.4,-15%,.,-1.4,.,-8,-1.6
COc1ccc(C(=O)NC2CC2)cc1OC1CCN(Cc2ccc(F)cc2F)CC1,1.8,-1.8,-1%,-6,0.1,6,1,-4.2
Cc1ccc(C(=O)N/N=C/c2ccc(S(=O)(=O)O)o2)c(Cl)c1,1.9,0.4,-1%,4,.,1,0,-1.4
CCOC(=O)C(C)n1cnc2sc3c(c2c1=O)CCC3 (stereo not drawn),3.4,1.4,17%,-4,.,-3,-5,1.6
CC(C)(CO)NS(=O)(=O)c1ccc2c(c1)Cc1cc(S(=O)(=O)NC(C)(C)CO)ccc1-2,2.8,-0.2,0%,0,1.5,2,6,3.0
Cc1ccc(NC(=O)c2ccc(OC(=O)c3cc4ccccc4o3)cc2)cc1,-1.3,-0.1,22%,4,.,-6,4,0.8
Cc1cc(C)n(CC(=O)NC2CCCN(Cc3ccc(Cl)cc3)C2)n1 (stereo not drawn),2.7,-0.4,.,0,0.0,?,-3,0.0
CC(C)CC(=O)NCCc1ccncc1,?,0.3,2%,-22,.,-7,-6,2.8
Cc1ccc(Nc2nnc(SCC(=O)NC3CCCc4ccccc43)s2)cc1 (stereo not drawn),-2.3,0.1,0%,-6,.,-6,7,.
O=C(C1=C[C@@H](c2csc3ccccc23)C[C@@H](OCc2ccc(CO)cc2)O1)N1CCOCC1,4.5,0.8,16%,14,3.3&4.2,12,3,-2.9
O=C(c1cccc(N2CCCC2=O)c1)N1CCOCC1,-3.2,0.9,-5%,2,.,-7,-7,2.4
COc1ccc(/C=N/NC(=O)c2cccc(OC(F)(F)C(F)F)c2)c(OC)c1OC,-2.1,-1.3,10%,0,.,16,6,7.3
COc1ccc(-n2cc(CNC3CCC(O)CC3)c(-c3cccc(F)c3)n2)cc1 (stereo not drawn),-2.1,0.2,-8%,-3,-2.3,1,2,0.7
COc1cc(NCc2ccccc2O)c2ncccc2c1,-3.9,.,3%,26,3.1,-7,.,.
CC1=C(C(=O)Nc2ccccc2C(F)(F)F)C(c2sccc2C)NC(=S)N1 (stereo not drawn),2.7,0.0,.,3,-1.4,6,2,2.2
O=C(CSc1nc(Nc2ccccc2)nc(N2CCOCC2)n1)NC1CCCCC1,5.9,0.5,-1%,-6,-13,24,-3,-1.4
C=C(C)CN(CC)C(=O)CCc1nnc(CCCc2ccccc2)o1,0.9,-0.9,0%,-8,-0.2,11,-1,-6.8
O=C(NCc1ccc2c(c1)OCO2)C(C(=O)c1ccccc1)n1cc(Cl)ccc1=O (stereo not drawn),-2.6,-1.0,.,2,?,5,-4,0.1
COc1ccc(CNS(=O)(=O)c2ccc(C)cc2)cc1,-2.4,-0.3,.,17,-3.4,-20,3,1.9
Cc1c(CCCC(=O)O)sc(N)c1C(=O)c1cccc(C(F)(F)F)c1,-3.2,3.8,.,1,-1.4,-19,1,-3.5
CCN(Cc1nc(-c2cccc(C)c2)no1)C(=O)c1ccc2c(c1)OCO2,1.7,-0.3,.,-26,-5.0,3,-3,-0.7
Oc1ccc(Br)cc1CNc1ccccn1,-7.3,0.6,-8%,-1,-0.8,13,-6,-0.3
O=c1[nH]c(=S)[nH]nc1Cc1ccccc1,-1.8,.,9%,2,.,-13,-7,8.9
# (continued)
SMILES,RanGTP-Imp inh,A1 inh,Vif A3G,Calb FLC,MLL AF4-AF9 inh,T cruzi repl,Beta apoptosis,LANA-H2B inh
O=C(O)CCCC(=O)N(Cc1ccccc1)Cc1ccccc1,-2.1,0.6,-4%,0,.,-4,4,1.8
C/C(=N\NC(=O)c1cccc(Br)c1)c1cccc(NC(=O)c2ccc(C)o2)c1,-0.1,-1.4,14%,1,.,-10,-4,3.5
COc1cc(C(CCN2CCCCC2)c2c(OC)cc(OC)c3c(C)cc(=O)oc23)cc(OC)c1OC (stereo not drawn),0.4,-1.2,.,-1,8.2,27,2,-0.8
CC(C)Oc1ccc(C(=O)N2CCCc3ccccc32)cc1,1.2,-0.4,-1%,-30,.,-10,-4,-2.7
CN(CC(=O)Nc1cccc(F)c1)C(=O)c1cc([N+](=O)[O-])ccc1N1CCOCC1,?,1.9,-10%,-5,1.8,-2,-10,-2.4
O=C(CNC(=S)N(CCCN1CCOCC1)Cc1cccs1)NCc1ccc(Cl)cc1,1.3,0.1,.,-1,0.3,13,0,1.8
NC(=O)C1=C[C@@H](c2coc3ccccc3c2=O)C[C@@H](OCCCCO)O1,4.7,0.2,1%,-1,-0.2&-20,-13,-9,-2.5
CNc1ncc(-c2nnnn2-c2ccccc2)c(-c2ccccc2)n1,?,-1.1,.,10,4.2,-22,.,-0.9
COc1cc(C(=O)Nc2cccc(-n3cnnn3)c2)cc(Cl)c1OC,2.4,-0.3,.,.,1.6,-21,11,-11
CCOCCc1nnc(NC(=O)Cc2ccc(Br)cc2)s1,2.2,1.2,-2%,27,4.3,1,2,2.2
CCOC(=O)CNC(=O)CSc1nc(-c2ccc(OC)cc2)ns1,-5.7,-0.3,-2%,-1,-2.2,-10,-3,-0.1
O=C(O)c1c[nH]c(=O)c2ccccc12,5.5,-0.2,.,-17,0.6,-5,-4,-0.2
Cc1cccc(CSC2=CS(=O)(=O)c3ccccc3N2)c1,0.4,0.2,7%,?,.,10,17,-1.9
O=C(Nc1ncc([N+](=O)[O-])s1)c1ccccc1Br,-3.2,0.4,.,72,-1.7,52,0,-1.7
NC(=O)c1ccccc1NC(=O)c1ccccc1F,-6.0,-0.9,-2%,-28,.,-9,-7,-4.7
CN(C)C1C(=O)c2ccccc2C1=O,-3.1,0.3,-2%,7,4.0,-2,-1,-7.7
COCCn1c(CCc2ccccc2)n[nH]c1=S,-3.9,0.4,15%,10,-4.3,7,-1,1.4
Cc1cccc2nc(CSc3nc4ccccc4o3)cn12,9.7,-1.6,16%,-6,6.0,0,-2,1.3
CCC(c1nnnn1C1CCCC1)N1CCC(C(N)=O)CC1 (stereo not drawn),16*,0.1,.,-9,-0.4,-10,-2,49*
COc1ccc(OC)c(S(=O)(=O)NC2CC(=O)N(c3cccc(F)c3)C2)c1 (stereo not drawn),2.5,0.6,-3%,-1,0.7,-12,0,6.2
CCN(C(=O)COC(=O)CNC(=O)C12CC3CC(CC(C3)C1)C2)C1CCS(=O)(=O)C1 (stereo not drawn),-5.1,-0.1,5%,-26,-12,7,1,6.4
C=CCNCCCOc1ccc(Cl)cc1C(C)(C)C,4.7,0.8,-2%,-70,5.7,17,-4,-7.6
Cn1c(NCc2ccccc2Cl)nc2ccccc21,-6.9,-3.5,.,1,-2.8,-27,2,-0.2
COc1ccc(C(=O)Nc2ccc(Cl)cn2)cc1S(=O)(=O)N1CCCC1,.,1.3,2%,.,9.3,.,0,-8.5
CCC1(C)NC(=O)N(CC(=O)N2CCN(c3cccc(Cl)c3)CC2)C1=O (stereo not drawn),.,-0.1,.,.,3.2,.,-6,4.4
# Next part
SMILES,RanGTP-Imp inh,A1 inh,Vif A3G,Calb FLC,MLL AF4-AF9 inh,T cruzi repl,Beta apoptosis,LANA-H2B inh
COc1ccccc1C(=O)NNC(=O)C(=O)N1CCCCC1,2.5,0.3,.,9,-0.9,-22,0,-0.4
O=C(c1ccco1)N1CCN(c2nc(C(F)(F)F)nc3c2nnn3Cc2ccccc2)CC1,-1.7,-0.7,20%,20,.,9,.,5.2
COc1ccc(N2CCN(CC(=O)c3ccc(Cl)cc3)CC2)cc1,1.3,1.4,-11%,0,1.6,7,-2,3.5
Cc1ccc(N2CCN(C(=S)c3ccc(-c4ccccc4[N+](=O)[O-])o3)CC2)cc1,-3.4,0.0,-3%,-24,-0.5,-12,-5,2.3
Cc1cc(NC(=O)c2cccnc2)ccc1Br,3.5,-2.5,-6%,5,2.6,-4,38,-2.8
CC1(C)CC(=O)N(CC(=O)O)c2ccccc2S1,0.1,-1.5,5%,15,.,-9,-7,-7.0
Cc1cc2nc(N3CCN(C(=O)c4ccco4)CC3)sc2cc1C,-2.9,-2.2,-1%,5,-1.5,6,2,0.9
C=CCOC(=O)C1=C(C)NC2(O)c3ccccc3C(=O)C12O (stereo not drawn),1.1,0.1,23%,-16,.,-14,-3,.
Cc1c(C(=O)N2CCc3ccccc3C2)oc2ccc(S(=O)(=O)N3CCCCCC3)cc12,-1.6,-0.1,1%,5,-6.6,33,6,2.0
CCN1CCc2nc3sc(C(=O)N4CCc5ccccc5C4)c(N)c3cc2C1,1.3,-0.2,.,-17,8.4,26,1,5.6
Cc1ccc(NC(=O)C2CCCN2S(=O)(=O)c2cccc3cccnc23)c(C)c1 (stereo not drawn),-4.4,-1.1,6%,54,-14,-8,1,-0.3
COc1ccc(OC)c(C(=O)Cn2nnc3ccccc3c2=O)c1,.,0.4,?,1,.,12,-3,-2.3
CC1(C)Cc2c(oc3ncn4ncnc4c23)CO1,?,0.4,-3%,-4,.,-5,0,-4.0
N#Cc1ccc(NC(=S)NC(=O)C2CCCCC2)cc1,.,0.6,-5%,.,-8.4,.,0,-0.6
Cc1ccc(NC(=O)Nc2cc(C(F)(F)F)c[nH]c2=O)cc1,-2.0,0.1,.,-2,0.0,5,-33,-1.4
CCN(CC)S(=O)(=O)c1cccc(C(=O)Nc2sc3c(c2C(N)=O)CCCC3)c1,3.1,0.8,3%,6,.,22,-5,-2.5
O=C(Nc1ccccc1)C1=C(O)CC(c2ccc(Cl)cc2)N2CCN=C12 (stereo not drawn),-1.0,0.2,.,-4,.,35,-1,-5.5
Cc1ccc(-c2noc(CCCc3ccccc3)n2)cc1,1.0,-0.1,7%,-4,.,-4,.,-3.7
Cc1cc(NC(=O)c2ccc(Br)c([N+](=O)[O-])c2)no1,3.2,-1.0,.,3,-0.5,2,-4,6.1
COc1cc(OC)cc(N(C(=O)CNC(=O)c2cccs2)C(C(=O)NCC2CCCO2)c2ccccc2)c1 (stereo not drawn),7.1,0.2,.,-2,-5.8,-6,-6,0.5
COc1ccc(NC(=O)Nc2cccc3c2O[C@H](CN(C)S(=O)(=O)c2c(C)noc2C)[C@@H](C)CN([C@H](C)CO)C3=O)cc1,.,0.0,-3%,.,-1.0,.,-5,.
COc1ccc(/C(N)=N/OC(=O)c2ccc3c(c2)OCO3)cc1OC,0.1,-7.3,0%,10,7.3,57*,.,3.3
Cc1ccc(Nc2nnc(SCc3cc(=O)n4ccsc4n3)s2)c(C)c1,-4.9,-0.5,3%,5,.,7,2,1.2
Cc1ccc(NC(=O)CNC(=O)c2ccco2)cc1Cl,-0.3,-0.8,.,-16,-1.1,-9,-2,3.7
